Bioassay records: PubChem, Southern Research Institute
Mtb H37Rv – Mycobacterium tuberculosis H37Rv growth inhibition, putative kinase inhibitor library, confirmatory dose response (AID 2842); inhibition, % at 10 µg/mL; hits with a dose series show IC90 in µg/mL; actives 5.2% (n = 24,000); M. tuberculosis H37Rv growth inhibition; higher % means a stronger effect; some inactives read as strong as hits;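 active means confirmed in a dose series; inconclusive means mostly over 85% at the one dose but not retested; inactive means below 85% or not confirmed; about a fifth of its hits are not listed in these tables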;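 further: bacteria incubated one week before Alamar blue readout; 0% = bacteria only wells and 100% = bacteria with high antibiotic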
Starred values were filed as active, the others as inactive; ? = inconclusive. These rows are one share of the data; rates above refer to the full screens.

Start of the listing, in advance, 5 compounds:
| smiles | Mtb H37Rv |
| --- | --- |
| CCOC(=O)c1nn(-c2ccccc2)c(=O)c2c(NC(=O)c3cc(Cl)ccc3[N+](=O)[O-])scc12 | -9.0% |
| CCOC(=O)CCSCC(=O)Nc1nnc(C)s1 | 26.3% |
| O=C(Nc1c(C(=O)Nc2ccc(F)cc2)oc2ccccc12)c1ccc(S(=O)(=O)N2CCOCC2)cc1 | 0.1% |
| Cc1ccc(-n2c(SCC(=O)Nc3ccccc3F)nc3c(c2=O)SCC3)cc1 | 3.7% |
| COc1ccc2nc(-c3ccc(NC(=O)c4ccccc4C(F)(F)F)cc3)cn2n1 | 1.4% |

All compounds of this part (from the top)
| smiles | Mtb H37Rv |
| --- | --- |
| CCOC(=O)c1nn(-c2ccccc2)c(=O)c2c(NC(=O)c3cc(Cl)ccc3[N+](=O)[O-])scc12 | -9.0% |
| CCOC(=O)CCSCC(=O)Nc1nnc(C)s1 | 26.3% |
| O=C(Nc1c(C(=O)Nc2ccc(F)cc2)oc2ccccc12)c1ccc(S(=O)(=O)N2CCOCC2)cc1 | 0.1% |
| Cc1ccc(-n2c(SCC(=O)Nc3ccccc3F)nc3c(c2=O)SCC3)cc1 | 3.7% |
| COc1ccc2nc(-c3ccc(NC(=O)c4ccccc4C(F)(F)F)cc3)cn2n1 | 1.4% |
| COC(=O)c1ccc2nc(NC(=O)c3ccc(Cl)s3)sc2c1 | -2.2% |
| Cc1cc(OCC(=O)Nc2ccc(S(=O)(=O)Nc3nccs3)cc2)ccc1Br | -11.6% |
| COc1ccc(C(=O)NC2CC(=O)N(c3ccc(Cl)cc3)C2)cc1 (configuration not stated) | -6.7% |
| Cc1ccc(NC(=O)CSc2cn(Cc3ccccc3)c3ccccc23)cc1 | -6.2% |
| CCS(=O)(=O)Nc1cc2c3c(c1)CCC(=O)N3CCC2 | 0.1% |
| O=c1ccc(-c2ccc(F)cc2)nn1CCNS(=O)(=O)c1cccs1 | -10.8% |
| O=c1[nH]c2ccc(Br)cc2c(-c2ccccc2)c1N=Cc1ccccc1O | 13.0% |
| Cc1cc2nnc(SCC(=O)Nc3ccccc3Cl)n2c2ccccc12 | -1.7% |
| CC(C)Sc1nc2c([nH]c3ccccc32)c(=O)n1C | 12.5% |
| COc1ccc(C(=O)Nc2c(N)nc(SC)[nH]c2=O)cc1 | 11.2% |
| CCOC(=O)c1nn(-c2ccc(C)cc2)c(=O)c2c(NC(=O)/C=C/c3ccccc3)scc12 | -8.6% |
| O=C(Nc1ccc(O)c(-c2nc3ccccc3s2)c1)c1ccc(Cl)cc1 | 5.7% |
| Nc1nc(SCC(=O)N2CCCc3ccccc32)[nH]c(=O)c1NC(=O)c1cccs1 | -16.3% |
| Cc1ccc(-n2nc3c(c2NC(=O)/C=C\c2ccc4c(c2)OCO4)CSC3)cc1 | 4.6% |
| Cn1c(=O)c2c(SCc3ccc(C(F)(F)F)cc3)nc(-c3ccc(F)cc3)nc2n(C)c1=O | -13.6% |
| O=C(Nc1nnc(-c2ccc3c(c2)CCCC3)o1)c1ccc(F)cc1 | 21.6µg/mL* |
| Cc1ccc(N2C(=O)C3N=NN(CC(=O)NCc4ccccc4Cl)C3C2=O)cc1C (configuration not stated) | -4.0% |
| CC1=C(C(=O)Nc2ccc(C)c(Cl)c2)C(c2ccccc2Br)NC(=O)N1 (configuration not stated) | 11.8% |
| Cc1ccccc1C(=O)Nc1nnc(-c2ccco2)o1 | 1.69µg/mL* |
| N#Cc1ccc(C(=O)Nc2nnc(-c3ccccn3)o2)cc1 | ? |
| Cc1ccc(NC(=O)CSc2nnc(-c3ccncc3)n2N)cc1Cl | 33.5% |
| CCOC(=O)CSc1nc2c(c(=O)[nH]c(=O)n2C)n1Cc1cccc(Br)c1 | 18.5% |
| CC1=C(C(=O)Nc2ccc(Cl)cc2)C(c2ccncc2)n2nc(CCCO)nc2N1 (configuration not stated) | -5.0% |
| O=C(Cc1cc(=O)[nH]c(=O)[nH]1)NCc1cccs1 | -6.2% |
| CCn1c2c(c(=O)[nH]c1=O)C(c1cccc(OC)c1OC)C1=C(COC1=O)N2 (configuration not stated) | -8.9% |
| Cc1cccc(-c2nnc(NC(=O)COc3ccccc3)s2)c1 | 4.8% |
| Cc1nnc(N/N=C/c2ccc(Cl)cc2Cl)[nH]c1=O | -3.9% |
| C=CCN1C(=O)SC(CC(=O)Nc2ccc([N+](=O)[O-])cc2)C1=O (configuration not stated) | -8.1% |
| COc1ccc2c(c1)c1nnc(-c3ccc(F)cc3)c-1cn2Cc1cccc(F)c1 | 53.4% |
| Cc1cc(C)cc(-n2nnc3c(=O)n(CC(=O)Nc4cccc(Cl)c4)cnc32)c1 | 2.3% |
| Cc1cc(N2CCN(CCOc3ccc(Cl)cc3)CC2)n2ncc(-c3ccccc3)c2n1 | 12.1% |
| O=C(CSc1ccc2nnc(CCNC(=O)c3ccc(F)cc3)n2n1)NCc1ccc(F)cc1 | -5.8% |
| Clc1ccc(-n2ncc3c(Cl)ncnc32)cc1 | 6.4% |
| Cc1cc(NC(=O)COc2ccc(Cl)cc2Cl)nc2c1c(=O)oc1ccccc12 | 5.1% |
| CC(=O)c1ccc(N2CCN(C(=O)NC3CC(=O)N(c4ccc(F)cc4)C3)CC2)cc1 (configuration not stated) | 10.4% |
| Cc1nnc(SCC(=O)Nc2ccc(Cl)c(C(F)(F)F)c2)n(N)c1=O | -1.6% |
| O=c1c(/C=N/O)c(SCc2ccccc2)nc2ccccn12 | 2.8% |
| CCOC(=O)c1sc(NC(=O)CSc2nnnn2-c2ccccc2)c(C(=O)OCC)c1C | 1.9% |
| O=C(Nc1sc2c(c1-c1nc3ccccc3s1)CCCC2)c1ccccc1Br | -1.0% |
| CCOC(=O)CC(=O)CSc1ccc2nnc(-c3ccc(F)cc3)n2n1 | -8.6% |
| CC(=O)c1ccc(NC(=O)COc2cccc3c2CCNC3=O)cc1 | -13.4% |
| NC1=NC(=O)/C(=C/c2ccccc2)S1 | -5.9% |
| O=C(Nc1nnc(-c2ccc(F)cc2)s1)c1ccc(-c2ccccc2)cc1 | -10.5% |
| O=C1CC(NS(=O)(=O)c2cccnc2)CN1c1ccc(Cl)cc1 (configuration not stated) | 10.6% |
| Cc1c(/C(O)=C2\C(=O)C(=O)N(CCCN(C)C)C2c2cccnc2)cnn1-c1ccccc1 (configuration not stated) | -6.2% |

(listing goes on)
| smiles | Mtb H37Rv |
| --- | --- |
| CCN(CC)S(=O)(=O)c1ccc(C(=O)Nc2sccc2C(=O)NC(=O)OC)cc1 | <0.2µg/mL* |
| CN(C(=O)c1ccco1)c1nnc(C23CC4CC(CC(C4)C2)C3)s1 | 47.7% |
| Cc1ccc(C2C3=C(CC(C)(C)CC3=O)Nc3nc(SCCC(C)C)[nH]c(=O)c32)o1 (configuration not stated) | 10.5% |
| COc1ccc(NC(=O)CSc2nc3[nH]ncc3c(=O)[nH]2)c(OC)c1 | -6.1% |
| COc1cccc(C(=O)Nc2nnc(-c3ccc(C)cc3)s2)c1OC | 3.5% |
| Cc1nnc(NC(=O)CSc2ncnc3c2oc2ccccc23)s1 | 11.8% |
| CCOc1ccc(N2CC(NC(=O)c3cccc4ccccc34)CC2=O)cc1 (configuration not stated) | -5.8% |
| COc1cccc(NC(=O)c2sc3nc4c(c(-c5ccco5)c3c2N)CCCC4)c1 | -5.8% |
| CCOC(=O)c1nn(-c2ccc(C)cc2)c(=O)c2c(NC(=O)c3ccccc3I)scc12 | 11.2% |
| CCOC(=O)c1nn(-c2ccc(C)cc2)c(=O)c2c(NC(=O)c3ccccc3F)scc12 | -0.8% |
| CN(C)S(=O)(=O)c1ccc(C(=O)Nc2nc(-c3cccs3)cs2)cc1 | -5.4% |
| COc1ccccc1-n1c(SCC(=O)Nc2ccc(Cl)cc2)nc2c(c1=O)SCC2 | 8.9% |
| COC(=O)CCC(=O)NC(=S)Nc1ccccc1C(=O)N1CCCCCC1 | -7.0% |
| CSc1ccccc1-c1nnc(NC(=O)c2ccc(C(C)=O)cc2)o1 | 21.3% |
| Cc1[nH]nc2c1C(c1cccs1)C(C#N)=C(N)O2 (configuration not stated) | -6.0% |
| COc1ccc(NC(=O)c2oc3ccccc3c2NC(=O)C(C)C)cc1OC | 1.6% |
| Cn1c(=O)c2c(nc(N3CCN(c4ccccc4)CC3)n2CCSc2ncccn2)n(C)c1=O | -1.2% |
| COc1ccc(CC(=O)Nc2nnc(-c3cccc([N+](=O)[O-])c3)s2)cc1 | 8.6% |
| CCCCOC(=O)c1ccc(NC(NC(=O)c2ccco2)C(=O)c2ccccc2)cc1 (configuration not stated) | 76.2% |
| COc1ccc(-c2nc(C(N)=O)c3[nH]c(=O)n(-c4ccc(Cl)cc4)c3n2)cc1 | 3.3% |
| CCOC(=O)c1sc(NC(=O)c2ccc3c(c2)CCCC3)nc1C | 4.4% |
| CCOC(=O)c1ccsc1NC(=O)c1coc2ccccc2c1=O | 5.2% |
| Cc1ccc(N(C)C(=O)N2CCN(S(=O)(=O)c3ccc4ccccc4c3)CC2)cc1 | -3.9% |
| CSc1nc(N)c(NC(=O)c2ccc(Br)o2)c(=O)[nH]1 | -4.9% |
| CC(C)(C)c1ccc(C(=O)Nc2ccc3c(c2)N(S(=O)(=O)c2cccs2)CCC3)cc1 | 1.1% |
| CCCCOc1ccc(C(=O)Nc2c(C(=O)OCC)oc3ccccc23)cc1 | 10.7% |
| COc1cc(-c2cc(=O)c3cc(C)cc(C)c3o2)ccc1O | 5.1% |
| O=C(NCC1COc2ccccc2O1)NC1CC(=O)N(c2ccc3c(c2)OCCO3)C1 (configuration not stated) | 9.6% |
| COc1cc(/C=C2\Oc3cc(OCC(N)=O)ccc3C2=O)cc(OC)c1OC | -4.4% |
| O=C(Nc1nnc(C23CC4CC(CC(C4)C2)C3)s1)c1ccccc1Br | 8.4% |
| CC(Nc1n[nH]c(=O)[nH]c1=O)C(=O)N/N=C/c1cccc(Br)c1 (configuration not stated) | -12.3% |
| COc1ccc2c(c1)c(=O)c(C(=O)c1ccc(Cl)cc1)cn2Cc1ccccc1 | 6.44µg/mL* |
| COc1ccc(NC(=O)c2oc3ccccc3c2NC(=O)c2ccc(C)cc2)cc1OC | 4.7% |
| COc1ccc(C)cc1NC(=O)c1cnc2sccn2c1=O | 0.0% |
| C/C(=N\NC(=O)c1cc(-c2cccs2)[nH]n1)c1ccccc1O | -1.3% |
| CCOC(=O)c1nn(-c2ccc(OC)cc2)c(=O)c2c(NC(=O)C3CCCC3)scc12 | 2.6% |
| COc1cc2nc(NCCCN3CCCC3=O)n3nc(-c4cccnc4)nc3c2cc1OC | -10.9% |
| O=C(OCn1nnc2ccccc2c1=O)c1c(F)cccc1F | -6.5% |
| CCOCCn1c(SCc2ccc(F)cc2)nc2c1c(=O)[nH]c(=O)n2C | 26.0% |
| NC(=O)c1oc2ccccc2c1NC(=O)c1cc(-c2cccs2)nc2ccccc12 | -5.9% |
| Cc1nc2ccccn2c1-c1csc(Nc2ccc(S(N)(=O)=O)cc2)n1 | 1.6% |
| Cc1cc(C)cc(-n2c(SCC(=O)Nc3cccc4ccccc34)nc3c([nH]c4ccccc43)c2=O)c1 | 4.2% |
| CCn1c(=NC(=O)CSCC(=O)Nc2nccs2)sc2ccccc21 | 10.5% |
| COc1ccc(N2CC(NC(=O)c3ccc([N+](=O)[O-])cc3)CC2=O)cc1OC (configuration not stated) | -16.6% |
| Fc1ccc(Nc2nc(NCCN3CCOCC3)nc3nccnc23)cc1 | -8.4% |
| CC(C)C(=O)Nc1c(C(=O)Nc2ccccc2)oc2ccccc12 | 1.5% |
| CCCc1cc(=O)[nH]c2nnc(SCc3ccccc3C)n12 | -8.5% |
| COC(=O)c1c(NC(=O)c2ccc(S(=O)(=O)N(C)C)cc2)sc2c1CCN(Cc1ccccc1)C2 | 3.2% |
| Cc1ccc(OCCCC(=O)Nc2ccccc2C(N)=O)c(C)c1 | 3.4% |
| CCOc1ccc2c(c1)c1nnc(-c3ccc(F)cc3)c-1cn2Cc1ccc(F)cc1 | 1.5% |

(more compounds)
| smiles | Mtb H37Rv |
| --- | --- |
| O=C(NCc1nnnn1-c1ccc(Cl)cc1)C(=O)c1c[nH]c2ccccc12 | 15.9% |
| Cn1c(=O)[nH]c(=O)c2c1nc(N1CCNCC1)n2Cc1ccc(Cl)cc1 | 8.2% |
| O=c1cnnc(N/N=C/c2ccc(O)cc2)[nH]1 | -2.6% |
| Cc1csc(NC(=O)CSc2nc(-c3cccs3)nc3c2c(=O)n(C)c(=O)n3C)n1 | -7.4% |
| NC(=O)CSc1cn(Cc2ccc(F)cc2)c2ccccc12 | 1.2% |
| CCn1c2c(c(=O)[nH]c1=O)C(c1cccs1)C1=C(COC1=O)N2 (configuration not stated) | -1.7% |
| COc1cccc(C(=O)Nc2nc(-c3ccncc3)cs2)c1 | -0.5% |
| COc1ccc(Nc2ncnc3c2oc2ccccc23)c(OC)c1 | -4.4% |
| CCOC(=O)CCC(=O)Nc1c(C(=O)Nc2ccc3c(c2)OCCO3)oc2ccccc12 | -18.5% |
| COC(=O)c1ccc(C(=O)OC)c(Nc2ncnc(N)c2[N+](=O)[O-])c1 | 1.8% |
| O=C(O)C1CCN(S(=O)(=O)c2cccc([N+](=O)[O-])c2)CC1 | 1.2% |
| CCOC(CNc1ncnc(N)c1[N+](=O)[O-])OCC | -1.0% |
| CCOc1ccc2nc(NC(=O)c3ccc(OC)c(OC)c3)sc2c1 | 4.2% |
| Cc1ccc2nc(-c3ccncc3)cc(C(=O)O)c2c1 | -2.2% |
| O=C(Nc1cccc2c1C(=O)NC2=O)c1ccc(N2C(=O)CCC2=O)cc1 | -10.4% |
| COCCn1c(SCC(=O)c2ccccc2)nc2c1c(=O)[nH]c(=O)n2C | -6.8% |
| COc1cc(C(=O)Nc2sc3c(c2C(N)=O)CCN(Cc2ccccc2)C3)cc(OC)c1OC | 1.7% |
| CCOC(=O)c1nn(-c2cccc(F)c2)c(=O)c2c(NC(=O)c3ccc(S(=O)(=O)N4CCOCC4)cc3)scc12 | -0.6% |
| CCOc1ccc(-c2ccc(=O)n(CCNC(=O)c3ccc4ccccc4c3)n2)cc1 | -7.2% |
| COc1ccc(C2C(C#N)=C(N)SC3C(=O)N(c4ccc(C)cc4)C(=O)C32)cc1 (configuration not stated) | -9.2% |
| O=C(CSc1ccc([N+](=O)[O-])cc1[N+](=O)[O-])OCC(F)(F)F | -1.5% |
